CapD inh = blocks the Bacillus anthracis CapD enzyme; purified CapD enzyme, fluorescence intensity read-out; active compounds read low; some hits fall short of the stated cut; z-score (test concentration not listed); hit rate 0.23% among 140,000; AID 492967;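 active = z-score under -4 in either of two replicates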;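 note: stock transfer was 100 nL into about 40 µL; score is relative to mean and spread of the plate; one replicate is shown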
AID504770 = E. coli YBA685 growth inhibition, screen for V. cholerae RctB inhibitors | hit rate 0.27% among 130,000 | E. coli YBA685 rctB-dependent plasmid, OD600 growth, 3 h; active compounds read low | z-score (no concentration beside the values) | AID 504770;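 active = z-score under -2 on both plates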;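 note: wells of about 30 µL received 100 nL stock; score is relative to mean and SD of the test wells; the first replicate is given; strong numbers were not always called active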
The depositor's hits bear a star; nt = not tested or not shown; & = joins results of further samples.

structure | CapD inh | AID504770
CCc1cccc(C)c1-n1c(C)cc(/C=C2\C(=O)NC(=S)N(c3ccccc3F)C2=O)c1C | -0.495 | 1.6
CC(Oc1ccc(-c2nnco2)cc1)C(=O)Nc1cccc2ccccc12 (configuration not stated) | nt | 0.85
O=C(CSC1=NCCS1)NC12CC3CC(CC(C3)C1)C2 | -0.035 | -0.05
CC(=O)OCc1ccc(/C=N/NC(=O)c2ccc(S(N)(=O)=O)cc2)o1 | -2.9 | nt
Cc1ccccc1CC(=O)Nc1ccc(S(N)(=O)=O)cc1 | -0.065 | -0.75
CSc1cccc(NC(=O)CCS(=O)(=O)c2cccc3nonc23)c1 | -0.02 | -0.25
CCOc1ccc2c(c1)NC(c1ccc(C)o1)=NC(c1cccs1)=N2 | -2.86 | 1.2
O=C1CC(c2ccc(Cl)cc2)CC2=C1C(c1cc3c(cc1[N+](=O)[O-])OCO3)Nc1ccccc1N2 (configuration not stated) | -0.14 | nt
CCCC(=O)N1c2ccccc2C(Nc2ccccc2)CC1C (configuration not stated) | 0.055 | -0.9
Cc1ccc(Nc2cc3oc4cc(C(C)(C)C)ccc4[nH]c3c3c(=O)c4ccccc4c(=O)c23)cc1 | 0.155 | nt
CC(=O)N(C)c1cccnc1 | -0.265 | 1.5
N#Cc1ccsc1NC(=O)/C=C/C(=O)O | -1.24 | -0.8
CCC(C#N)(C(N)=O)c1ccccc1 (configuration not stated) | 0.405 | -0.8
CCCc1nc2ccccc2c2c1C(=O)N(NC(=O)C(C)Oc1ccc(OC(F)(F)F)cc1)C2=O (configuration not stated) | -0.34 | nt
CN(C)/C=C/C(=O)C(Cc1ccc(Cl)cc1)Cc1ccc(Cl)cc1 | -0.33 | nt
CN1CCN(C(=O)c2cccn(Cc3ccc(C(F)(F)F)cc3)c2=O)CC1 | -0.82 | nt
O=C(NCc1ccc2c(c1)OCO2)C1CCC(=O)N1CCc1ccccc1 (configuration not stated) | -0.555 | -0.75
COc1ccc(C(=O)Nc2ccc(N3CCN(c4ccc(OC)cc4)CC3)c(C#N)c2)cc1 | 9.82 | 0.1
O=C(/C=C/c1cccc(C(F)(F)F)c1)NNC(=O)OCCCCCc1ccccc1 | 1.79 | nt
O=C(Nc1ccccc1-c1nc2ccccc2o1)C1CCCCC1 | 2.99 | -0.2
O=C(Cn1c2ccccc2c(=O)c2ccccc21)Nc1ccc(Oc2ccc(Cl)cc2)cc1 | 5.21 | nt
CCOC(=O)C1=C(c2ccccc2)OC(N)=C(C#N)C1c1ccccc1F (configuration not stated) | 0.235 | nt
Cc1ccc(N2C(=O)C3C4c5ccccc5C(C=Nc5cccc(C(=O)O)c5)(c5ccccc54)C3C2=O)cc1 (configuration not stated) | 0.845 | nt
COC(=O)c1cc2sccc2n1CC(=O)Nc1ccc(C(C)C)cc1 | -0.61 | 0.55
Cc1c(O)ccc2c(=O)c(Oc3ccccc3)c(C(F)(F)F)oc12 | -0.55 | -1.25

A different layout for some results above.
Screens in order: CapD inh	AID504770
> CSc1cccc(NC(=O)CCS(=O)(=O)c2cccc3nonc23)c1
 : -0.02	-0.25
> O=C(/C=C/c1cccc(C(F)(F)F)c1)NNC(=O)OCCCCCc1ccccc1
 : 1.79	nt
> CCOC(=O)C1=C(c2ccccc2)OC(N)=C(C#N)C1c1ccccc1F (configuration not stated)
 : 0.235	nt

(more compounds)
structure | CapD inh | AID504770
O=C(CN1C(=O)CCc2ccccc21)NCCN1CCN(c2ccccc2F)CC1 | -0.09 | 0.15
CN1CCC(N(C)C(=O)c2ccc(S(=O)(=O)NCc3ccco3)cc2)CC1 | nt | -1.15
CC1=CCC(C2OCC3CC=C(C)C2C3)CC1 (configuration not stated) | 0.1 | 0.75
Clc1ccc(N=Nc2cnc(-c3cccnc3)nc2-c2cccs2)cc1 | 0.355 | nt
O=C(NCc1nc2ccccc2s1)c1cc(F)cc2c1OCOC2 | 1.09 | -0.9
CCOC(=O)c1cnc2c(c(C)nn2C)c1N1CCC(n2cccc2)CC1 | 0.155 | 0.65
COc1ccc(Nc2nc(N3CCOCC3)nc(N3CCOCC3)n2)cc1 | -0.58 | nt
CCc1ccccc1NC(=O)N1CCN(c2nnc(C)c3c(C)n(-c4ccc(C)cc4)nc23)CC1 | 1.27 | 0
C=C(C)Cn1c(CNC(=O)c2ccc(F)cc2)nc2ccccc21 | -0.175 | 0.9
COc1cc(OC)cc(C(=O)N(CCCN2C(=O)c3cccc4cccc(c34)C2=O)c2cccc(OC)c2)c1 | 0.865 | nt
O=S1(=O)CCn2c(ncnc2=Nc2cccc(C(F)(F)F)c2)N1 | nt | -0.95
O=C(c1ccncc1)N1C(=O)c2cccc3cccc1c23 | nt | -0.4
COC(=O)C1=C(NC(=O)c2ccc(C(C)(C)C)cc2)CCS1 | 0.19 | 0.1
CC(=O)N1CCc2cc(Br)cc(S(=O)(=O)CC(=O)N3CCc4ccccc43)c21 | 0.525 | -0.75
O=C(CC(=O)Nc1ccc(Cl)cc1Cl)Nc1ccc(Cl)cc1Cl | -0.27 | nt
c1ccc(N2CCN(CN3CCN(c4ccccc4)CC3)CC2)cc1 | -0.06 | -0.6
COC(=O)C(=C/C=C/c1ccccc1)C(=O)OC | -4.48* | -0.15
CC(=O)N1CCN(c2ccccc2)CC1 | 0.265 | 1.4
CN(c1ccccc1)C(c1ccc(F)cc1)c1nnnn1CC1CCCO1 (configuration not stated) | nt | 0.7
c1ccc(-c2nc3ccccc3o2)nc1 | 16.4 | -0.85
NNC(=O)c1n[nH]c2c1CCCC2 | 0.22 | -0.65
Cc1occc1C(=O)Oc1ccc2c(c1)OCO2 | nt | -0.05
CCOc1ccccc1NC(=O)c1c(NC(=O)c2ccccc2Cl)sc2c1CCCCC2 | -0.195 | nt
COC(=O)c1ccccc1NC(=O)c1cccc(C)c1 | 1.96 | -1.55
CSc1nc(/N=C/N(C)C)nn1CCC#N | -0.475 | -0.45
COC(=O)C1=C(C)N=c2s/c(=C\c3cc(Br)ccc3OC(C)=O)c(=O)n2C1c1ccccc1 (configuration not stated) | -0.175 | nt
O=C(Nc1ccc2c(c1)CCC2)c1cc(N2CCOCC2)nc2ccccc12 | -0.14 | nt
CCc1nnc2sc(-c3ccc(NC(=O)c4cccnc4)cc3)nn12 | 0.71 | 0.55
O=C(O)CSc1nnc(-c2ccccc2)o1 | nt | -0.75
NS(=O)(=O)c1cc([N+](=O)[O-])c(N2CCN(C(=O)OCC3CCCCN3Cc3ccccc3F)CC2)s1 (configuration not stated) | -1.44 | nt
Cc1ccc(C(=O)N2CCCN(C)CC2)o1 | -1.49 | -0.65
CN(C)C(=O)CSc1nnnn1-c1ccccc1 | 0.065 | -1.1
Cc1sc2nc(CSc3ncnc4sccc34)[nH]c(=O)c2c1C | nt | 0.1
N#Cc1c(NC(=O)c2cc3n(n2)C(C(F)(F)F)CC(c2ccc4c(c2)OCO4)N3)sc2c1CCCC2 (configuration not stated) | 0.67 | nt
Cn1c(CNC(=O)c2ccccc2)nc2ccccc21 | 0.855 | -1.45
O=C(NC1CCN(C(=O)C2CCC2)CC1)C1CCCCC1 | 0.325 | -1.6
CC(C)(C)n1ccc(-c2cc(F)cc(F)c2O)n1 | 0.235 | 2.75
Cc1ccc(CN2C(=O)/C(=N\OC(=O)C(C)(C)CCl)c3ccccc32)cc1 | -0.14 | nt
O=S(=O)(NCc1ccccc1Cl)c1cccc(S(=O)(=O)N2CCOCC2)c1 | nt | -2.25
O=C(c1cn[nH]c1)N1CCCN(Cc2ccc(Cl)c(Cl)c2)CC1 | -0.85 | nt
S=C(SCc1c(Cl)cccc1Cl)N1CCSCC1 | 0.56 | -0.35
C=CCn1c(C)cc(C(=O)CC#N)c1C | 0.455 | -0.5
CCCN(CCC)S(=O)(=O)c1ccc(C(=O)N/N=C/C=C/c2ccccc2)cc1 | -0.45 | nt
O=c1c2ccccc2c2ccccc2c(=O)n1Cc1ccccn1 | 1.73 | -0.45
O=C(Nc1ccc2c(c1)C(=O)c1ccccc1C2=O)c1ccc(S(=O)(=O)N2CCc3ccccc32)cc1 | -0.11 | nt
COc1ccc(CN(C(=O)/C=C/C(=O)O)C2CC(=O)N(c3ccccc3)C2=O)cc1 (configuration not stated) | 0.33 | -0.3
NC(=O)c1sc2c(c1N)C(c1ccccc1)CC(=O)N2 (configuration not stated) | nt | -0.8
Cc1ccc(-c2nc(CS(=O)(=O)CC(=O)N(C)Cc3ccccc3)c(C)o2)cc1 | -0.215 | -0.45
CC(C)Cn1c(=O)c2ccccc2n2c(CCC(=O)N3CCN(c4ccc(F)cc4)CC3)nnc12 | 0.715 | -0.7
NC(=O)/C(=C\c1cccs1)c1ccsc1 | -1.17 | -0.75

Next section.
structure | CapD inh | AID504770
CC1CCCN(c2c3c(nc4ccccc24)CCCC3)C1 (configuration not stated) | -0.395 | 1.9
Cc1ccc(C(=O)NC2CCCCNC2=O)cc1 (configuration not stated) | -0.84 | -0.9
CSc1nc2ccc(NC(=O)c3ccc(N(C)C)cc3)cc2s1 | 3.19 | 2.3
CC12CCC(C/C1=N/O)C2(C)CBr (configuration not stated) | 0.115 | -0.8
O=C(O)C1(Cc2nc3ccccc3s2)CCCC1 | nt | 0.05
COc1ccc(-n2c(=S)[nH]c3cc(C(=O)Nc4cc(OC)c(OC)c(OC)c4)ccc3c2=O)cc1 | -0.6 | nt
COC(=O)C1=C(O)/C(=C\c2ccc(CNS(=O)(=O)c3ccccc3)o2)N=C1C | 2.77 | 0.6
N#Cc1c(Nc2ccccc2)[nH]c(=O)[nH]c1=O | 9.4 | -1.8
N#CC1(c2ccccc2)CCC(NCCCn2cnc3ccccc32)CC1 (configuration not stated) | nt | 0.65
CCOC(=O)c1c(C)nn(-c2ncccc2NC(=O)CCC(=O)O)c1C | -0.84 | 0.35
CC12CCC3C(CCC4=CC(=O)CCC43C)C1CCC2=O (configuration not stated) | 0.12 | -0.55
COc1ccccc1NC(=O)c1ccc(C(=O)c2ccccc2)o1 | -0.98 | -1.1
CC(=O)N1CCN(c2nc(C3CC3)nc3sc4c(c23)CCCC4)CC1 | nt | -0.75
O=C1CCCN2N=C(SCc3cccc(C(F)(F)F)c3)SC2=N1 | 0.315 | 0.35
CNC(=O)CSCc1cnn(-c2ccccc2)c1-n1cccc1 | 1.81 | -1.55
Cc1cc(C)cc(N2C(=O)C(N3C(=O)c4ccccc4C3=O)C2c2ccc(F)cc2)c1 (configuration not stated) | -0.51 | nt
COc1cc2[nH]c(=O)n(/N=C/c3ccc(O)c(Br)c3)c(=O)c2cc1OC | nt | -0.35
C=CCN1Cc2c(sc3c2CCCC3)N(C(=O)c2ccccc2)C1 | nt | -0.25
CC(=NCc1ccco1)c1c(CSc2ccc(C)cc2)[nH]n(-c2nc3ccccc3s2)c1=O | 0.42 | nt
NC(CC(=O)O)c1ccccc1 (configuration not stated) | nt | -0.2
O=C(O)c1ccc2c(c1)no[n+]2[O-] | -0.24 | -2.85
Cc1cc(-n2c(C)cc(C(=O)COC(=O)c3sccc3C)c2C)no1 | nt | 0.1
O=C(C1CCN(C2=NS(=O)(=O)c3ccccc32)CC1)N1CCc2ccccc21 | nt | -0.15
CCc1[o+]c(-c2ccccc2)cc2c1CCCC2 | 0.675 | 0.3
CC1(C)OC(c2ccncc2)OC1(C)C | nt | -0.25

One compound at a time (already shown):
Profile of O=C1CCCN2N=C(SCc3cccc(C(F)(F)F)c3)SC2=N1 : CapD inh = 0.315; AID504770 = 0.35
Profile of CC12CCC3C(CCC4=CC(=O)CCC43C)C1CCC2=O (configuration not stated) : CapD inh = 0.12; AID504770 = -0.55

Next part
structure | CapD inh | AID504770
COc1ccc(-c2nc3nnc(C)n3[nH]2)c(OC)c1 | 41.8 | 0.55
O=C(Nc1ccccc1Cl)NC1(C(=O)NCc2cccnc2)CCCCC1 | nt | 0.05
Oc1ccccc1-c1nc2sccn2c1Nc1ccccc1 | -0.275 | 1.25
Cc1ccc(F)cc1N1CC(C(=O)O)CC1=O (configuration not stated) | 0.145 | -0.4
COc1ccc(/C=C/C(=O)Nc2ccn(-c3ccccc3)n2)cc1 | 0.455 | -0.25
COc1ccc(C2NC(=O)NC(C)=C2C(=O)OCc2ccc3c(c2)OCO3)cc1OC (configuration not stated) | -2.42 | nt
COc1c(Cl)cc(Cl)c(OC)c1C(=O)O | -0.685 | nt
Cc1ccc(C)c(C(=O)CSc2nc3nc(C)cc(C)c3c(=O)[nH]2)c1 | 2.73 | -0.3
Cc1ccc(Nc2nnc(SCC(=O)NC(=O)NCc3ccco3)s2)cc1C | nt | 0.6
COc1ccc(-c2ccnc(SC)n2)cc1 | 0.845 | 0.8
N#CCCN(C(=O)Cn1c(Cc2ccccc2)nc2ccccc21)c1ccccc1 | 0.54 | -0.4
CCc1nnc(NC(=O)C2CC(=O)N(c3ccccc3)C2)s1 (configuration not stated) | nt | -1.4
CCC1(C)CC(=O)NC1=O (configuration not stated) | -0.615&1.52 | -0.7
Cc1sc2ncnc(NCC(=O)O)c2c1C | 0.57 | -0.75
O=C(c1c[nH]c2ccc(S(=O)(=O)N3CCC4(CC3)OCCO4)cc2c1=O)N1CCC2(CC1)OCCO2 | 7.18 | nt
CC(NC(=O)CCn1c(=S)oc2ccccc21)c1ccccc1 (configuration not stated) | 0.195 | 0
CC(=O)Oc1c(I)c(=O)n(C)c2ccccc12 | -1.24 | -0.65
CN(Cc1ccccc1)C(=O)COC(=O)C1COc2ccccc2O1 (configuration not stated) | nt | -0.5
FC(F)(F)Oc1ccccc1C=Nc1ccc(Cl)cc1 | 0.08 | -0.6
CN1C(=O)NC2(C)N(C)C(=O)NC12C (configuration not stated) | -1.65 | nt
CCOC(=O)CS(=O)(=O)c1ccc2ccccc2c1 | 0.34 | 0.25
c1cnc(Oc2ccc3oc4ccccc4c3c2)nc1 | nt | 1.45

Screens (PubChem BioAssay)
